Vaccinia stage = Vaccinia orthopox stage-specific inhibition; Vaccinia-infected cells, mCherry/Venus stage reporter fluorescence; hits give low values; some inactives read as strong as hits; activity change (mCherry), % (test concentration not listed); 89,000 compounds, 0.01% hits; AID 1053133;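 active = mCherry past -33% and 40 or more points under the early reporter, replicates agreeing; inconclusive = past -33% without that gap or agreement; tested in A549 cells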;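 note: scaled between vehicle wells and reference inhibitor wells; 23 nL library stock went into each well; one replicate is shown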
Vaccinia stage Venus = recorded beside Vaccinia stage, whose call it bears; activity change (Venus), %; measured here: Venus reporter, other viral stage;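 negative = less Venus signal; first of two replicates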
An asterisk follows results filed as active; ? = inconclusive; . = no result given. This is a subset; rates above refer to the full screens.

SMILES	Vaccinia stage	Vaccinia stage Venus
O=C1O[C@H](c2ccccc2)[C@H](c2ccccc2)N2[C@H]1[C@@H](C(=O)N1CCN(c3ncccn3)CC1)[C@]1(C(=O)Nc3ccc(C#CC4=CCCCC4)cc31)[C@H]2c1ccc(OCCO)cc1	-11	-2
COc1ccc(C#Cc2ccc3c(c2)[C@@H]2[C@@H](CCN2C(=O)C2CC2)[C@@H](CO)N3)cc1	-2	-5
COc1ccc(C#Cc2cnc3c(c2)C(=O)N([C@H](C)CO)C[C@@H](C)[C@@H](CN(C)C(=O)c2ccccc2F)O3)cc1	-3	-6
CC(=O)N(C[C@H]1N[C@H](CO)[C@@H]1c1ccc(-c2cccc(F)c2)cc1)C1CCCC1	-23	-14
CC(C)NC(=O)Nc1cccc2c1O[C@H](CN(C)S(=O)(=O)c1ccc(Cl)cc1)[C@H](C)CN([C@@H](C)CO)C2=O	4	-1
C[C@H](CO)N1C[C@H](C)[C@@H](CN(C)S(=O)(=O)c2ccc(F)cc2)Oc2ccc(NS(=O)(=O)c3ccccc3)cc2C1=O	12	14
C[C@@H]1CN([C@H](C)CO)C(=O)c2cc(C#CCN(C)C)cnc2O[C@H]1CN(C)Cc1cccc(C(=O)O)c1	21	14
COCC(=O)N1[C@H](C#N)[C@H](c2ccccc2-c2cccc(C)c2)[C@H]1CO	8	7
C[C@H](CO)N1C[C@H](C)[C@@H](CN(C)C(=O)Nc2ccc3c(c2)OCO3)OCCCC[C@H](C)Oc2ccc(NC(=O)Nc3ccc(C(F)(F)F)cc3)cc2C1=O	0	10
C[C@H](CO)N1C[C@H](C)[C@@H](CN(C)C(=O)C2CCOCC2)Oc2ncc(-c3ccccc3)cc2C1=O	10	3
C[C@H](CO)N1C[C@H](C)[C@H](CN(C)S(=O)(=O)c2cccs2)Oc2c(NS(=O)(=O)c3cn(C)cn3)cccc2C1=O	2	-4
CCCC(=O)Nc1ccc2c(c1)C(=O)N(C)C[C@@H](OC)[C@H](C)CN(C(=O)C1CCCC1)[C@@H](C)CO2	-3	0
C[C@@H]1CN([C@@H](C)CO)S(=O)(=O)c2ccc(C#CC(C)(C)O)cc2O[C@H]1CN(C)Cc1ccccc1	-31	-24
Cc1noc(C)c1S(=O)(=O)Nc1ccc2c(c1)CC(=O)N([C@@H](C)CO)C[C@H](C)[C@H](CN(C)C(=O)NC(C)C)O2	30	22
CO[C@H]1CN(C)C(=O)c2ccc(NC(=O)CC(F)(F)F)cc2OC[C@@H](C)N(C(=O)c2ccccc2F)C[C@@H]1C	-19	-6
CC=Cc1ccc2n(c1=O)C[C@@H]1[C@@H](CO)[C@H](C(=O)NCC3CC3)N(C(C)=O)[C@H]21 (mixture of isomers)	9	3
Cc1ccc(S(=O)(=O)N(C)C[C@@H]2OCCCC[C@@H](C)Oc3ccc(NS(=O)(=O)c4c(C)noc4C)cc3C(=O)N([C@H](C)CO)C[C@@H]2C)cc1	-18	-10
CCO[C@H]1OC(C(=O)NCc2ccccc2)=C[C@@H](c2cn(C(C)=O)c3ccccc23)[C@@H]1CCCO	-18	-5
C[C@@H]1CCCCO[C@H](CN(C)Cc2ccccc2)[C@H](C)CN([C@@H](C)CO)C(=O)c2cc(N(C)C)ccc2O1	-11	-4
C[C@H](CO)N1C[C@H](C)[C@@H](CN(C)Cc2ccc(C(=O)Nc3ccccc3N)cc2)Oc2c(NS(=O)(=O)c3ccc(Cl)cc3)cccc2C1=O	8	4
COc1cccc(NC(=O)N(C)C[C@H]2OCc3ccccc3-c3ccccc3C(=O)N([C@H](C)CO)C[C@@H]2C)c1	5	11
CC(C)NC(=O)Nc1ccc2c(c1)C(=O)N([C@H](C)CO)C[C@H](C)[C@H](CN(C)S(=O)(=O)c1cccs1)OCCCC[C@H](C)O2	-2	-1
O=C(C[C@H]1CC[C@@H]2[C@H](COC[C@H](O)CN2C(=O)c2ccccc2)O1)Nc1ccc(-c2ccccc2)cc1	?	.
C[C@H]1CN([C@@H](C)CO)C(=O)Cc2cc(NC(=O)Nc3ccccc3)ccc2O[C@@H]1CN(C)Cc1ccc(C(=O)O)cc1	9	5
CC(C)(C)[S@@](=O)N1Cc2cc(C(=O)NCc3ccc4c(c3)OCO4)nc(-c3cccc(-c4ccncc4)c3)c2[C@H]1CCO	?	.
C/C=C/c1ccccc1[C@@H]1[C@@H](C#N)N(C(=O)c2cccnc2)[C@H]1CO	13	11
Cc1noc(C)c1NC(=O)N(C)C[C@@H]1Oc2ccc(NC(=O)C3CC3)cc2C(=O)N([C@@H](C)CO)C[C@@H]1C	1	8
C[C@H](CO)N1C[C@H](C)[C@H](CN(C)S(C)(=O)=O)Oc2cc(C#Cc3ccc(F)cc3)ccc2S1(=O)=O	?	.
Cc1ccc(S(=O)(=O)N(C)C[C@H]2OCCCC[C@@H](C)Oc3ccc(NS(=O)(=O)c4c(C)noc4C)cc3C(=O)N([C@H](C)CO)C[C@H]2C)cc1	?	.
C[C@@H]1CN([C@@H](C)CO)C(=O)c2cc(NS(C)(=O)=O)ccc2O[C@H]1CN(C)Cc1ccc(Oc2ccccc2)cc1	-19	-20
COc1ccc2c3c(n(C)c2c1)[C@H](CO)N(Cc1cccc(F)c1)CC31CN(C(=O)Cc2ccccc2)C1	-20	-25
O=C(c1ccccn1)N1C[C@H]2[C@@H](c3ccccc31)[C@H](CO)N2C(=O)Nc1ccccc1F	0	4
C[C@@H]1CN([C@@H](C)CO)S(=O)(=O)c2ccc(/C=C/c3ccccc3)cc2O[C@H]1CN(C)C(=O)c1ccc2c(c1)OCO2	?	.
O=C(C1CC1)N1CCCCN2[C@H](C1)[C@@H](c1ccc(C#CC3CCCC3)cc1)[C@@H]2CO	?	.
Cn1cnc(S(=O)(=O)N2CC[C@@H]3[C@H]2c2cc(C#Cc4ccccc4)ccc2N[C@@H]3CO)c1	?	.
COc1ccc(-c2ccc([C@H]3[C@H]4CN(C(=O)NC(C)C)CC(=O)N4[C@H]3CO)cc2)cc1	12	13
COc1ccccc1NC(=O)N1CC[C@@H]2[C@@H](CO)N(C)c3ccc(-c4ccc(F)cc4)cc3[C@@H]21	?	.
C[C@H]1CN([C@@H](C)CO)C(=O)c2cc(C#CC3(O)CCCC3)cnc2O[C@@H]1CN(C)C(=O)Cc1ccncc1	2	2
O=C(Nc1ccccc1F)N[C@@H]1CC[C@@H](CCNC(=O)C2CCCC2)O[C@H]1CO	-2	17
CN(C)CC#Cc1cccc(-c2nc(C(=O)NCc3ccc4c(c3)OCO4)cc3c2[C@H](CCO)N(S(=O)C(C)(C)C)C3)c1 (stereo not given in full)	20	28

Among those listed so far, 6 have two or more sulfur atoms:
SMILES	Vaccinia stage	Vaccinia stage Venus
C[C@H](CO)N1C[C@H](C)[C@@H](CN(C)S(=O)(=O)c2ccc(F)cc2)Oc2ccc(NS(=O)(=O)c3ccccc3)cc2C1=O	12	14
C[C@H](CO)N1C[C@H](C)[C@H](CN(C)S(=O)(=O)c2cccs2)Oc2c(NS(=O)(=O)c3cn(C)cn3)cccc2C1=O	2	-4
Cc1ccc(S(=O)(=O)N(C)C[C@@H]2OCCCC[C@@H](C)Oc3ccc(NS(=O)(=O)c4c(C)noc4C)cc3C(=O)N([C@H](C)CO)C[C@@H]2C)cc1	-18	-10
CC(C)NC(=O)Nc1ccc2c(c1)C(=O)N([C@H](C)CO)C[C@H](C)[C@H](CN(C)S(=O)(=O)c1cccs1)OCCCC[C@H](C)O2	-2	-1
C[C@H](CO)N1C[C@H](C)[C@H](CN(C)S(C)(=O)=O)Oc2cc(C#Cc3ccc(F)cc3)ccc2S1(=O)=O	?	.
Cc1ccc(S(=O)(=O)N(C)C[C@H]2OCCCC[C@@H](C)Oc3ccc(NS(=O)(=O)c4c(C)noc4C)cc3C(=O)N([C@H](C)CO)C[C@H]2C)cc1	?	.

(cont.)
SMILES	Vaccinia stage	Vaccinia stage Venus
COCC#Cc1ccc2c(c1)O[C@H](CN(C)Cc1ccc3c(c1)OCO3)[C@@H](C)CN([C@@H](C)CO)S2(=O)=O	?	.
C[C@@H]1CN([C@@H](C)CO)C(=O)Cc2cc(NC(=O)Nc3cccc4ccccc34)ccc2O[C@H]1CN(C)S(=O)(=O)c1cn(C)cn1	-1	11
C[C@@H]1CN([C@H](C)CO)C(=O)Cc2cc(NS(=O)(=O)c3cccs3)ccc2O[C@H]1CN(C)CC1CC1	11	9
C[C@@H]1CN([C@H](C)CO)C(=O)c2cccc(NS(C)(=O)=O)c2O[C@@H]1CN(C)C(=O)NC1CCCCC1	7	7
CCCC(=O)N1CC2(C1)CN(C(=O)Cc1ccccn1)[C@H](CO)c1[nH]c3cc(OC)ccc3c12	-20	-41
CN1C(=O)c2cc(NC(=O)c3ccc(F)cc3)ccc2OC[C@H]2O[C@H](CC(=O)NCC3CCCCC3)CC[C@H]21	?	.
COc1ccc(S(=O)(=O)Nc2ccc3c(c2)C(=O)N([C@H](C)CO)C[C@H](C)[C@H](CN(C)S(=O)(=O)c2c(C)noc2C)OCCCC[C@H](C)O3)cc1	?	.
C[C@H](CO)N1C[C@H](C)[C@@H](CN(C)Cc2ccccc2)Oc2ncc(-c3ccccc3)cc2C1=O	-18	-12
C[C@H](CO)N1C[C@H](C)[C@@H](CN(C)Cc2ccc3c(c2)OCO3)Oc2ccc(NS(=O)(=O)c3ccc(F)cc3)cc2CC1=O	?	.
CCC(=O)N[C@@H]1C=C[C@H](CC(=O)NCc2ccccc2OC)O[C@H]1CO	-4	2
CCCC(=O)Nc1ccc2c(c1)C(=O)N(C)C[C@H](OC)[C@H](C)CN(C(C)=O)[C@@H](C)CO2	18	6
CO[C@H]1CN(C)C(=O)c2ccc(NS(C)(=O)=O)cc2OC[C@H](C)N(CC2CC2)C[C@H]1C	17	4
C[C@@H]1CN([C@H](C)CO)C(=O)c2cc(C#Cc3ccccc3F)cnc2O[C@@H]1CN(C)S(C)(=O)=O	5	0
C[C@H]1CN([C@@H](C)CO)S(=O)(=O)c2ccc(-c3ccccc3)cc2O[C@@H]1CN(C)Cc1ccccn1	-29	-29
Cc1ccccc1-c1ccccc1[C@H]1[C@@H](C#N)N(C(=O)c2cccc(F)c2)[C@@H]1CO	-2	-4
Cc1ccc(S(=O)(=O)N(C)C[C@H]2OCCCC[C@H](C)Oc3ccc(NC(=O)c4ccccc4)cc3C(=O)N([C@@H](C)CO)C[C@H]2C)cc1	0	1
COc1ccc(OC(=O)N(C)C[C@@H]2OCc3ccccc3-c3c(n(C)c4ccccc34)C(=O)N([C@@H](C)CO)C[C@@H]2C)cc1	?	.
C[C@@H](NC(=O)[C@H]1[C@H](CO)[C@H]2Cn3c(cccc3=O)[C@@H]1N2C(=O)C1CCC1)c1ccccc1	19	10
COc1ccc(S(=O)(=O)N(C)C[C@H]2OCCCC[C@@H](C)Oc3ccc(NC(=O)CCC(F)(F)F)cc3C(=O)N([C@@H](C)CO)C[C@H]2C)cc1	-25	-26
C[C@H]1CN([C@@H](C)CO)C(=O)c2cc(NC(=O)C3CC3)ccc2O[C@H]1CN(C)S(=O)(=O)c1ccc(F)cc1	-1	-12

3 entries from above, with bars between the fields:
SMILES | Vaccinia stage | Vaccinia stage Venus
C[C@@H]1CN([C@H](C)CO)C(=O)c2cccc(NS(C)(=O)=O)c2O[C@@H]1CN(C)C(=O)NC1CCCCC1 | 7 | 7
C[C@@H]1CN([C@H](C)CO)C(=O)c2cc(C#Cc3ccccc3F)cnc2O[C@@H]1CN(C)S(C)(=O)=O | 5 | 0
C[C@H]1CN([C@@H](C)CO)S(=O)(=O)c2ccc(-c3ccccc3)cc2O[C@@H]1CN(C)Cc1ccccn1 | -29 | -29

Given in CSV form: two of the compounds above.
mol,Vaccinia stage,Vaccinia stage Venus
C[C@@H]1CN([C@H](C)CO)C(=O)c2cccc(NS(C)(=O)=O)c2O[C@@H]1CN(C)C(=O)NC1CCCCC1,7,7
CCCC(=O)N1CC2(C1)CN(C(=O)Cc1ccccn1)[C@H](CO)c1[nH]c3cc(OC)ccc3c12,-20,-41

Next results follow.
SMILES	Vaccinia stage	Vaccinia stage Venus
O=C(C[C@@H]1CC[C@@H](NS(=O)(=O)c2ccccc2)[C@H](CO)O1)N1CCC(Cc2ccccc2)CC1	-25	-16
Cc1ccc(S(=O)(=O)NCC[C@@H]2CC[C@@H](NC(=O)c3cccc(F)c3)[C@@H](CO)O2)cc1	-8	-3
O=C(C[C@H]1CC[C@@H](NC(=O)c2ccncc2)[C@H](CO)O1)NCC1CC1	8	10
C[C@@H](NC(=O)C[C@@H]1CC[C@@H](NC(=O)C2CC2)[C@H](CO)O1)c1ccccc1	-5	-1
O=C(Nc1cccc(F)c1)N[C@@H]1CC[C@H](CCn2cc(Cc3ccccc3)nn2)O[C@@H]1CO	-8	-2
COCCNC(=O)C[C@H]1CC[C@H]2[C@@H](COc3ccc(NC(C)=O)cc3C(=O)N2C)O1	14	10
C[C@@H](NC(=O)C[C@H]1CC[C@@H]2[C@H](COC[C@H](O)CN2C(=O)Nc2cc(Cl)cc(Cl)c2)O1)c1ccccc1	-30	-25
C[C@H]1CN([C@@H](C)CO)C(=O)Cc2cc(NS(=O)(=O)c3ccc(F)cc3)ccc2O[C@H]1CN(C)Cc1ccc(C(F)(F)F)cc1	8	5
COc1ccc(S(=O)(=O)Nc2ccc3c(c2)C(=O)N([C@@H](C)CO)C[C@H](C)[C@@H](CN(C)Cc2ccccc2)O3)cc1	-8	-12
CC(C)C#Cc1cnc2c(c1)C(=O)N([C@@H](C)CO)C[C@H](C)[C@H](CN(C)Cc1ccccn1)O2	-4	7
C[C@@H]1CN([C@@H](C)CO)C(=O)c2ccccc2-c2ccccc2CO[C@@H]1CN(C)S(=O)(=O)c1cccs1	-4	-11
COc1ccc(-c2ccc(C3[C@@H]4CN(Cc5ccccn5)C[C@H]3N4)cc2)cc1 (stereo not given in full)	?	-14
COc1ccc(S(=O)(=O)N(C)C[C@H]2OCCCC[C@@H](C)Oc3ccc(NC(=O)c4ccncc4)cc3C(=O)N([C@H](C)CO)C[C@@H]2C)cc1	37	14
O=C(C1CC1)N1CC(=O)N2[C@H](C1)[C@H](c1ccc(-c3ccccc3F)cc1)[C@@H]2CO	-18	-13

Screening results from PubChem BioAssay.
